# GALR2 ag: GALR2 (human) receptor agonism; activation, %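 (tested at 5 µM)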; GALR2-expressing cells, agonist activation read-out; hit rate 0.48% among 140,000;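 active = above mean plus 3 SD of all compounds, about 5% in these data, not always enough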;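 note: 0% = vehicle buffer wells and 100% = reference agonist at full effect; tested in CHO reporter cells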
# Target sequence (O43603 whole entry, looked up): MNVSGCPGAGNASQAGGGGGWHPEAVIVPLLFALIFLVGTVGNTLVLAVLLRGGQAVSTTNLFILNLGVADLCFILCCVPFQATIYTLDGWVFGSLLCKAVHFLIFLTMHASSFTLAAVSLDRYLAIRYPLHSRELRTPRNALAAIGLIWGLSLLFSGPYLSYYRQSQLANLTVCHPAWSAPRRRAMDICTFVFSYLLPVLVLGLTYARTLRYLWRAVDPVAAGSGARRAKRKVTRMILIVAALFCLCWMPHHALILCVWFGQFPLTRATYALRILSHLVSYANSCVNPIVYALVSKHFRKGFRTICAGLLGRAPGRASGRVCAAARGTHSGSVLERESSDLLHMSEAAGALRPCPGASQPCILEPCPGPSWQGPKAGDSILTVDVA
# PKD1 inh: PKD1 (human) kinase inhibition | Q15139 | PKD1 kinase fluorescence polarization assay | inhibition, %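 (about 10 µM by stock and volumes)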 | hit rate 0.056% among 200,000 | AID 797;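 active = inhibition of 50% or more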;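 note: controls were vehicle for no effect and a reference inhibitor for full effect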
# RGS16-Gao HTS: RGS16-Galphao interaction regulator (human). O15492+P09471. bead-based flow cytometry RGS16-Galphao binding, fluorescence; actives lie on both sides. binding response (% of control), % at 10 µM. hit rate 0.38% among 220,000. AID 1441;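 active = below 25% or above 175%, edge rows of some plates excepted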;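 note: Galphao activated by GDP with aluminum fluoride before binding; 100% = wells without compound and 0% = beads without RGS; some results beyond the cut were filed as inactive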
# Target sequence (O15492 whole entry, looked up): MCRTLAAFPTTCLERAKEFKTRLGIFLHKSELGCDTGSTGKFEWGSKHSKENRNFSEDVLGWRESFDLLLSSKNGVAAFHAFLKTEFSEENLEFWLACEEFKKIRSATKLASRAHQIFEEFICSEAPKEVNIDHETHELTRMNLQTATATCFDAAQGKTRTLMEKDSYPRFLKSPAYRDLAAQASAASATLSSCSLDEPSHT
# Target sequence (P09471 whole entry, looked up): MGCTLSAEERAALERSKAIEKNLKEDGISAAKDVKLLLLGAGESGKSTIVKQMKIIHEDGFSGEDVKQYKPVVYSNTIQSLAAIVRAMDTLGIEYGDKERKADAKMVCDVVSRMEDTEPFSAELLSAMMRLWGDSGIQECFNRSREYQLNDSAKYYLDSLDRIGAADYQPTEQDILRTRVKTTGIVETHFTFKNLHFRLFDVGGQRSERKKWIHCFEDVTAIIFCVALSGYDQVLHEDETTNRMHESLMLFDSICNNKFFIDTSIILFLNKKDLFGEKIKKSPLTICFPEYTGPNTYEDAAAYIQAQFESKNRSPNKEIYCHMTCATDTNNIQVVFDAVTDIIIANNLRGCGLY
# HSV replic up: HSV replication enhancement; HSV replication augmentation in cells, fold increase; maximum fold increase; hit rate 0.005% among 220,000; AID 1956;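 active = peak rise of 1.5-fold or more in the series; tested in PC3 cells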;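 note: first round at 10 µM; read as green reporter fluorescence; hits show the peak of a series up to 25 µM; 1 = signal of infected wells without compound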
# Insulin prom inh: TRM-6 insulin promoter activity inhibition; TRM-6 cells (human fetal islet line), insulin promoter-eGFP reporter, imaging; reporter expression induced with tamoxifen; inhibition, % at 2 µM; hit rate 0.9% among 130,000; AID 1273;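 active = inhibition above the mean plus 3 SD, with well images judged a real hit on visual review, cut at about 60% in these data, passing the limit was not always enough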
# Insulin prom inh cell count: also measured in Insulin prom inh; calls as there; normalized cell count, %; measured here: cell count, toxicity; reference of the scale not given here;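 cells exposed to compound for 48 h; stained nuclei by imaging scaled within each plate; lower means fewer cells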
# HSV replic up primary fold: second read-out of HSV replic up, no call of its own (marks repeat the call); fold increase; compound at 10 µM; measured here: primary screen fold increase 10 uM; tested in PC3 cells;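 GFP signal in the first replicate; 1 = infected wells without compound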
# Active calls of the source: *; i = inactive; / = no result given.
item	Molecule	GALR2 ag	PKD1 inh	RGS16-Gao HTS	HSV replic up
1	COc1cc(/C=C/C(=O)O)cc(S(=O)(=O)N2CCc3ccccc3C2)c1OC	/	-1	102	i
2	Cc1ccc(OCC(=O)NNC(=O)C2CCCO2)c(C)c1 (stereo not given)	/	2	105	i
3	c1ccc(-c2nc3ccccc3o2)nc1	-1.3	-2	98	/
4	CC1=C(NCCc2ccccc2)CCC1=O	-0.4	6	114	i
5	C/C(=N\Nc1ccc(Cl)c(Cl)c1)c1ccc(-n2ccnc2)cc1	-0.5	-10	110	i
6	Cc1ccc(-n2c(SCC(=O)Nc3cccc(S(N)(=O)=O)c3)nc3ccccc32)cc1	0.5	-9	94	i
7	Cc1nccn1CC(=O)N/N=C/c1ccccc1O	/	/	110	i
8	COc1ccc(-c2nnc(SCC(=O)N3CCCc4ccccc43)o2)cc1OC	0.4	-6	106	i
9	CN(c1ccccc1)C(c1ccc(F)cc1)c1nnnn1CC1CCCO1 (stereo not given)	-0.3	-1	102	i
10	CCn1c(=O)c(C(=O)CN2CC(C)OC(C)C2)c(N)n(Cc2ccccc2)c1=O (stereo not given)	-1.6	-8	100	i

item	HSV replic up primary fold	Insulin prom inh	Insulin prom inh cell count
1	0.91	27	141
2	1.1	/	/
3	/	12	211
4	0.94	/	/
5	0.94	5	114
6	0.84	6	104
7	1	/	/
8	0.97	-100	99
9	1	-5	203
10	1	/	/

# Further records follow:
item	Molecule	GALR2 ag	PKD1 inh	RGS16-Gao HTS	HSV replic up
11	O=C(NCCc1ccccc1)C1CCCN(S(=O)(=O)c2cnc[nH]2)C1 (stereo not given)	-0.1	-8	106	i
12	Cc1ccc(NC(=O)N(Cc2nc3ccccc3c(=O)[nH]2)Cc2cccs2)cc1	-1.6	-4	99	i
13	CCCCNC(=O)CCNS(=O)(=O)c1ccc(Br)cc1	-1.2	-7	109	i
14	COC(=O)C(Oc1ccc2c(-c3ccc(OC)cc3)cc(=O)oc2c1)c1ccccc1 (stereo not given)	-0.1	-7	87	i
15	CCOC(=O)CSc1nc2ccc(S(=O)(=O)N3CCOCC3)cc2[nH]1	-1.8	0	95	i
16	CC(C)OP(=O)(OC(C)C)C(NC(=O)c1ccc(Br)cc1)c1ccccc1 (stereo not given)	-2.0	5	114	i
17	CCn1cc(SCC(N)=O)c2ccccc21	-1.8	-16	103	i
18	CCOc1cc(CNC(C)(C)C)ccc1OCC(=O)Nc1cccc(C(F)(F)F)c1	/	-4	97	i
19	O=C(CSc1nncn1-c1ccccc1)NCc1cccs1	12*	1	99	i
20	CC(C)(C)NC(=O)C(Cc1ccccc1)NS(=O)(=O)c1cccc2nsnc12 (stereo not given)	-1.3	-5	93	i

item	HSV replic up primary fold	Insulin prom inh	Insulin prom inh cell count
11	1	/	/
12	0.89	-6	91
13	1	18	125
14	1.2	/	/
15	0.92	23	83
16	0.98	-33	191
17	1	50	141
18	0.83	/	/
19	1	-31	118
20	1	-116	130

# Entries by screen from the entries so far:
# Compounds 7–16 in HSV replic up primary fold, in turn: 1, 0.97, 1, 1, 1, 0.89, 1, 1.2, 0.92, 0.98

# Records listed so far shown as hits in GALR2 ag:
nr	SMILES	GALR2 ag	PKD1 inh	RGS16-Gao HTS	HSV replic up	HSV replic up primary fold
19	O=C(CSc1nncn1-c1ccccc1)NCc1cccs1	12*	1	99	i	1

# More entries.
item	Molecule	GALR2 ag	PKD1 inh	RGS16-Gao HTS	HSV replic up
21	Cc1ccc2cccc(O)c2[n+]1[O-]	-1.4	-3	97	i
22	Cc1ccc(N2CC(C(=O)Nc3ccc(S(=O)(=O)N4CCOCC4)cc3)CC2=O)cc1 (stereo not given)	-1.8	-7	101	i
23	CCCCCn1c(CN2CCN(c3cccc(Cl)c3)CC2)nc2c1c(=O)n(C)c(=O)n2C	-0.1	-8	/	i
24	Cc1cc(C(=O)COC(=O)c2ccc[nH]c2=O)c(C)n1-c1ccccc1	0.2	-3	99	i
25	COc1ccc(/C=C/C(=O)c2ccc3c(c2)OCCO3)cc1[N+](=O)[O-]	-2.0	-6	103	i
26	CCOC(=O)c1c(C)nn(-c2ncccc2NC(=O)CCC(=O)O)c1C	/	/	97	i
27	Nc1nnc(-c2ccccc2)s1	1.0	2	107	/
28	CCOc1ccccc1N(CC(=O)NCC1CCCO1)C(=O)CNS(=O)(=O)c1ccccc1 (stereo not given)	/	-3	102	i
29	O=C1CCCN1CCCNc1ccc(S(=O)(=O)N2CCCCC2)cn1	-2.1	-11	101	i
30	COC(=O)C1=C(O)/C(=C\c2ccc(CNS(=O)(=O)c3ccccc3)o2)N=C1C	0.1	-5	98	i

item	HSV replic up primary fold	Insulin prom inh	Insulin prom inh cell count
21	0.86	29	94
22	0.95	55	58
23	0.91	27	162
24	0.93	43	137
25	0.9	/	/
26	1.1	/	/
27	/	/	/
28	0.57	/	/
29	0.81	/	/
30	1.3	32	173

# Further results follow.
item	Molecule	GALR2 ag	PKD1 inh	RGS16-Gao HTS	HSV replic up
31	O=C(CSc1nnc(-c2cccnc2)n1CCc1ccccc1)N1CCCCC1	-0.3	-7	100	i
32	CC(=O)Nc1cccc(NC(=O)CCCC(=O)O)c1	-2.2	0	98	i
33	O=C(COc1ccc(Br)cc1)Nc1ccc(-c2nnc(-c3ccco3)o2)cc1	-2.2	-3	103	i
34	CCOC(=O)CNC(=O)c1sc2ncnc(N3CCc4ccccc4C3)c2c1C	0.8	1	97	i
35	CC12CCC(C/C1=N/O)C2(C)CBr (stereo not given)	/	/	95	i
36	Cc1ccc(C(=O)NC2CCCCNC2=O)cc1 (stereo not given)	/	/	101	i
37	Cc1ccc(NC(=O)OCCN2CCN(S(=O)(=O)c3ccc(C)cc3)CCC2=O)cc1	-1.2	-9	105	i
38	CC(C)c1nc2c(c(=O)c3ccccc3n2C)c(=O)n1-c1ccc(F)cc1	0.1	-5	105	i
39	C=C1C2C[C@H](O)C(C)(C)[C@@]2(O)[C@H](O)C[C@]23C[C@@](C)(O)[C@H](CC[C@H]12)[C@H]3O (stereo not given in full)	-1.1	-3	111	i
40	CCOc1ccc(-c2nc3ccccc3c(=O)o2)cc1	/	-2	102	i

item	HSV replic up primary fold	Insulin prom inh	Insulin prom inh cell count
31	0.81	6	69
32	1	/	/
33	0.92	-16	171
34	1.3	29	125
35	0.92	/	/
36	1.1	/	/
37	0.93	-64	146
38	1.1	-26	78
39	0.98	52	92
40	0.9	/	/

# Later entries
item	Molecule	GALR2 ag	PKD1 inh	RGS16-Gao HTS	HSV replic up
41	C=CCn1c(=O)c2ccccc2n2c(SCc3nc4ccccc4s3)nnc12	0.6	9	101	i
42	C#CCOCCOCCOCCNc1nc(N2CCN(C(=O)[C@H](C(C)C)n3cc(CCO)nn3)CC2)nc(N2CCN(C(=O)[C@H](C(C)C)n3cc(CCO)nn3)CC2)n1	-2.9	36	101	i
43	Cc1ccc(C)c(NC(=O)c2ccccn2)c1	0.9	-1	103	i
44	CC(C)CNS(=O)(=O)c1cc(C(=O)OCC(=O)N(C)C2CCS(=O)(=O)C2)c(Cl)cc1Cl (stereo not given)	/	/	102	i
45	Cc1cc2ncn(CC(O)COc3cccc(C(=O)O)c3)c2cc1C (stereo not given)	-3.3	-11	108	i
46	Cc1ccccc1-n1nnnc1SCC(=O)N(C)C1CCS(=O)(=O)C1 (stereo not given)	/	-4	98	i
47	COc1cc(C2C(C#N)=C(N)Oc3n[nH]c(-c4ccncc4)c32)cc(OC)c1OC (stereo not given)	-0.2	8	99	/
48	COc1cccc(C(=O)NC2CCCC2)c1	/	-3	104	i
49	C/C(CC(=O)NCCCN1CCOCC1)=N\NC(=O)COc1ccc(C)cc1	-1.8	-3	142	i
50	COC(=O)c1cccc(S(=O)(=O)N2CCOCC2)c1	-1.7	-2	40	i

item	HSV replic up primary fold	Insulin prom inh	Insulin prom inh cell count
41	0.97	-94	27
42	1.2	/	/
43	0.99	26	66
44	0.79	/	/
45	0.75	/	/
46	1	/	/
47	/	-19	113
48	1	/	/
49	1	-26	136
50	1	/	/

# The results go on:
item	Molecule	GALR2 ag	PKD1 inh	RGS16-Gao HTS	HSV replic up
51	O=c1c2ccccc2nnn1CSc1nnc2ccccn12	-2.8	-5	102	i
52	CCOC(=O)C1=C(C)NC(C)=C(C(=O)OC)C1c1ccco1 (stereo not given)	/	/	99	i
53	Cc1ccc(N/C=C/c2onc(C)c2[N+](=O)[O-])cc1	/	/	102	i
54	COc1cccc(/C(C#N)=C/c2c(-c3ccc(Cl)cc3)nc3c(C)cccn23)c1	-1.6	-1	101	i
55	Cc1csc(Cn2c(CN(C)C)nc3ccccc3c2=O)n1	-0.5	-4	106	i
56	CC(=O)Oc1ccc(C(=O)[C@H]2[C@H]3C(=O)N(c4ccc(C)cc4C)C(=O)[C@H]3[C@@H]3C=CC=NN32)cc1	/	/	102	i
57	Oc1cc(NCc2cccnc2)ccc1-c1nc2ccccc2o1	-3.0	-4	99	i
58	COc1cc(/C=C/C(=O)NCCc2ccc(S(N)(=O)=O)cc2)ccc1OCC#N	/	/	107	i
59	O=C(Nc1ccccc1Cl)c1ccc(-n2cccn2)c([N+](=O)[O-])c1	/	6	103	i
60	CC(C)NCCOCCSc1ccc(Cl)cc1	-4.4	2	105	i

item	HSV replic up primary fold	Insulin prom inh	Insulin prom inh cell count
51	0.8	/	/
52	1	/	/
53	0.94	/	/
54	1.1	-30	152
55	1.1	/	/
56	1.1	/	/
57	0.93	38	51
58	0.93	/	/
59	0.94	/	/
60	0.97	-132	96

# The results go on:
item	Molecule	GALR2 ag	PKD1 inh	RGS16-Gao HTS	HSV replic up
61	COCCN(C(=O)c1ccccc1)c1nnc(-c2cccnc2)s1	-0.5	-6	104	i
62	C=CCc1cccc(/C=N/NC(=O)CNc2ccccc2)c1O	-2.3	3	99	i
63	CS(=O)(=O)N(CC(=O)N1CCCCC1)c1sc2c(c1C#N)CCCC2	-0.7	-5	109	i
64	COc1cc(/C=N/NC(=O)Cn2cnc3ccccc3c2=O)ccc1O	/	/	103	i
65	CCOc1nc(NCCO)nc(Nc2ccccc2F)n1	/	1	107	i
66	CN(c1cccc(NC(=O)c2ccccc2N(C)S(=O)(=O)c2ccccc2)c1)S(C)(=O)=O	-0.7	2	79	i
67	Cc1cccc(NC(=S)N(CCCN2CCOCC2)C(C)c2cc3ccccc3o2)c1C (stereo not given)	/	4	104	i
68	CCCN1C[C@H](CSC)C[C@@H]2c3cccc4[nH]cc(c34)C[C@H]21	-1.4	-3	80	i
69	O=C(O)C(=O)/C(=C\c1cccc(Cl)c1)c1ccc2ccccc2n1	/	13	101	i
70	O=c1oc2ccccc2cc1-c1ccc(O)cc1O	-0.9	10	103	i

item	HSV replic up primary fold	Insulin prom inh	Insulin prom inh cell count
61	0.89	/	/
62	1	-3	104
63	0.77	-33	152
64	0.95	/	/
65	0.87	23	128
66	0.91	-28	101
67	0.92	47	159
68	0.84	18	115
69	0.96	/	/
70	0.97	7	178

# Part of the list above, set out differently.
No. | SMILES | GALR2 ag | PKD1 inh | RGS16-Gao HTS | HSV replic up | HSV replic up primary fold | Insulin prom inh | Insulin prom inh cell count
62 | C=CCc1cccc(/C=N/NC(=O)CNc2ccccc2)c1O | -2.3 | 3 | 99 | i | 1 | -3 | 104
63 | CS(=O)(=O)N(CC(=O)N1CCCCC1)c1sc2c(c1C#N)CCCC2 | -0.7 | -5 | 109 | i | 0.77 | -33 | 152
64 | COc1cc(/C=N/NC(=O)Cn2cnc3ccccc3c2=O)ccc1O | / | / | 103 | i | 0.95 | / | /
65 | CCOc1nc(NCCO)nc(Nc2ccccc2F)n1 | / | 1 | 107 | i | 0.87 | 23 | 128

# Other results follow:
item	Molecule	GALR2 ag	PKD1 inh	RGS16-Gao HTS	HSV replic up
71	CNc1nc(C)c(C(=O)OCC(=O)OC)s1	-0.4	0	102	i
72	CC1(C(=O)O)CC(C)(C(=O)O)CC(C)(C(=O)O)C1 (stereo not given)	-0.7	-3	101	i
73	COc1ccc(OC)c(NC(=O)CSC2=NCCS2)c1	-0.8	-2	100	i
74	CCCCOc1cccc(C2C(C(=O)c3cccs3)=C(O)C(=O)N2Cc2cccnc2)c1 (stereo not given)	0.3	12	112	i
75	COc1ccc(-c2cc3ccccc3oc2=O)cc1NC(=S)NC(=O)c1ccc2c(c1)OCCO2	-0.1	-29	98	i
76	O=C(NNC1=NCCC1)c1cccc(S(=O)(=O)N2CCOCC2)c1	0.1	-3	117	i
77	COC(=O)c1cccc(NC(=O)c2nn(C(C)C)c(=O)c3ccccc23)c1	-2.2	7	99	i
78	Cc1nn(Cc2ccccc2)c(C)c1NC(=O)CSc1nc(C2CC2)nc2c1cnn2-c1ccccc1	-1.4	2	15	i
79	CCOC(=O)N(Cc1ccccc1)C(C(=O)O)C(C(=O)O)N(Cc1ccccc1)C(=O)OCC (stereo not given)	-1.0	-7	105	i

item	HSV replic up primary fold	Insulin prom inh	Insulin prom inh cell count
71	0.74	/	/
72	1	-39	115
73	0.91	-22	184
74	1	8	139
75	0.6	17	48
76	0.84	/	/
77	0.77	/	/
78	1	/	/
79	0.98	-74	50
